# Mtb growth: Confirmatory growth inhibition assay against Mycobacterium tuberculosis H37Rv, potency (AID 1949). most inactive calls were filed without a number and no value below 0 was filed. inhibition, % at 10 µg/mL; hits with a dose series show IC50 in µg/mL. 100,000 tested, 1.6% active;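 active = confirmed in a dose series; inconclusive = about 50% or more but not retested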;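 also: bacteria grown 7 days with compound before Alamar blue readout; 0% = untreated bacteria and 100% = reference antibiotic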
# Active calls of the source: *; i = inactive; u = inconclusive. Not all compounds are listed; count on the stated rates, not on these rows.
canonical_smiles,Mtb growth
COc1cc(OC)cc(C(=O)NC(=S)NCCc2ccccc2)c1,i
OCC1C2c3ccccc3C(c3ccccc32)C1CO (stereo not given),i
CC(=O)OC(C)CC#CCN1CCCC1 (stereo not given),i
O=C(CCCN1C(=O)CCC1=O)Nc1cccc(C(F)(F)F)c1,i
CCOc1ccc(OCc2ccc(C(=O)N(C)c3ccccc3)o2)cc1,i
CC(=O)c1ccc(N2CCN(Cc3ccc(F)cc3F)CC2)cc1,i
CN(C)C(=O)c1cn(-c2ccccc2)nc1-c1cc2ccccc2o1,1%
Cc1ccc(OCC(=O)Nc2ccccc2N2CCCC2)c(C)c1,i
C=CCc1cc(C)ccc1OCCOCCN1CCN(C)CC1,i
c1ccc(COc2ccccc2CNC(c2ccccc2)c2ccccc2)cc1,4%
O=C(Nc1ccc2oc(-c3ccc(Br)cc3)nc2c1)c1c(F)c(F)c(F)c(F)c1F,i
COc1ccc(NC(=O)C(C)Oc2ccc(C)c(C)c2)c(OC)c1 (stereo not given),i
COc1cccc(C2CC(c3ccccc3OC)n3ncnc3N2)c1 (stereo not given),2%
CC1(C)C(=O)C2(CCCC2)C(=O)OC1c1ccco1 (stereo not given),i
CC(C)NC(=S)NCc1cccnc1,i
Cc1ccc(C(=O)N2CCC(C(=O)Nc3ccc(F)c(Cl)c3)CC2)cc1,i
O=C(NC(=S)NCc1cccnc1)c1ccc2c(c1)OCO2,i
COc1cccc(OCC(O)CNC2CCCC2)c1 (stereo not given),1%
CCn1cc(C(=O)c2ccccc2)c2ccccc21,13%
Cc1cc(Br)ccc1OCC(=O)O/N=C(\N)Cc1cccc2ccccc12,i
Fc1ccc(CCNC(=S)Nc2ccc(Nc3ccccc3)cc2)cc1,i
CCOc1ccc(N2CCN(CCNC(=S)Nc3cccc(C)c3C)CC2)cc1,2%
CCCc1cc(=O)[nH]c(Nc2ccc(N3CCCCC3)cc2)n1,37%
CCc1c(C)sc(NC(=O)c2cc3nc(C4CC4)cc(C(F)(F)F)n3n2)c1C#N,i
Cc1ccccc1OCCCC(=O)Nc1ccc(S(=O)(=O)Nc2nccs2)cc1,29%
O=C(NCCSCc1c(Cl)cccc1Cl)c1ccccc1,4%
CC(C)NCC(O)COCCOc1ccc(Cl)cc1 (stereo not given),i
O=C(CSc1cccc2cccnc12)c1ccc([N+](=O)[O-])cc1,i
O=C(Nc1sc2c(c1C(=O)N1CCOCC1)CCCC2)c1ccccc1F,i
Cc1cc(NC(=O)c2c(Cl)cccc2Cl)no1,1%
Cc1ccc2nc(-c3ccc(N4C(=O)CC(N5CCC(N6CCCCC6)CC5)C4=O)cc3)sc2c1 (stereo not given),i
COc1ccc(-c2cc(C(=O)NCc3ccc(F)cc3)c3ccccc3n2)c(OC)c1,i
O=[N+]([O-])c1ccccc1S(=O)(=O)NCCSCc1c(Cl)cccc1Cl,4%
COc1cc(C2NC(=O)NC(C)=C2C(=O)OC(C)C)cc(OC)c1OC (stereo not given),i
O=C(O)c1ccccc1OCCOc1ccccc1C(=O)O,i
CN(CCc1ccccn1)Cc1cccc(Br)c1,i
CCc1cccc(C)c1NC(=O)CSc1nnc(-c2ccncc2)n1-c1ccc(C)cc1,i
CCOC(=O)C1=CN(C)C=C(C(=O)OCC)C1c1ccc(F)cc1,i
COc1ccc(-n2c(=O)c3c4c(sc3n3c(=S)[nH]nc23)CCCCC4)cc1,i
Cc1cccc2c(N=NC(=O)c3cccnc3)c(O)[nH]c12,i
O=C(C1CCN(S(=O)(=O)c2ccc(Cl)cc2)CC1)N1CCOCC1,i
CCn1c(SCC(=O)Nc2ccc(Br)cc2F)nnc1-c1ccccc1Cl,i
CCC(C)C(=O)Nc1ccc(F)c(F)c1 (stereo not given),1%
O=C1CC(c2ccco2)Sc2nc(-c3ccc(F)cc3)nn21 (stereo not given),0%
CC(=O)CSc1nc(N(C)C)nc(N(C)C)n1,i
CCN(CC)CC(=O)NC1CCCCC1,1%
COc1ccc(CNC(=O)c2c(-c3ccccc3)noc2C)cc1,i
COc1ccc(-c2cc(=O)c3cc(OC(=O)c4cccc(C)c4)ccc3o2)cc1,i
C=CCn1c(=N)c(C(=O)NCCN2CCOCC2)cc2c(=O)n3ccccc3nc21,i
O=C(CCN1CCN(c2ccccc2)CC1)Nc1cccc(F)c1,i
CC(C)Sc1nc2ccc(N)cc2[nH]1,i
COC(=O)C1=C(C)NC(=O)NC1c1cn(-c2ccccc2)nc1-c1c(C)cc(C)cc1C (stereo not given),i
COc1ccc(/C=C(/C#N)c2cccc(F)c2)c(OC)c1,i
Cc1ccc2nc(SCC(=O)NCc3ccccc3)[nH]c2c1,i
CCN(CC)CC(O)Cn1c(C)c(C)c2ccccc21 (stereo not given),i
CCCOC(=O)C1=C(C)NC2=C(C(=O)CC(C)(C)C2)C1c1ccc(N(C)C)cc1 (stereo not given),i
Cc1cccc(NS(=O)(=O)c2cc(C(=O)Nc3ccc(C(=O)O)cc3)ccc2C)c1,i
CCc1cc(C(=O)OC)c(NC(=S)Nc2nc3c(s2)CC(C)CC3)s1 (stereo not given),i
CC(C)NC(=O)c1ccccc1NC(=O)C(C)Sc1ccccc1 (stereo not given),2%
O=C(Cc1cccs1)Nc1ccccc1NC(=O)Cc1cccs1,i

# In a second layout: results already given
SMILES: CCN(CC)CC(=O)NC1CCCCC1
  Mtb growth: 1%
SMILES: COc1ccc(CNC(=O)c2c(-c3ccccc3)noc2C)cc1
  Mtb growth: i
SMILES: COc1ccc(-c2cc(=O)c3cc(OC(=O)c4cccc(C)c4)ccc3o2)cc1
  Mtb growth: i
SMILES: C=CCn1c(=N)c(C(=O)NCCN2CCOCC2)cc2c(=O)n3ccccc3nc21
  Mtb growth: i

# Next section.
compound | Mtb growth
O=C(NCC1CCCO1)c1ccccc1-c1ccccc1 (stereo not given) | i
N#CCC1NCCc2ccccc21 (stereo not given) | i
Cc1ccc(NC(=O)CSc2nc3ccccc3o2)cc1Cl | u
Cc1ccc(O)c(CNc2ccc(S(=O)(=O)Nc3nccs3)cc2)c1 | u
CN(C)C(=S)Nc1ccccc1N1CCOCC1 | i
CCOc1cccc(-c2cc(C(=O)N3CCN(Cc4ccccc4)CC3)c3ccccc3n2)c1 | 21%
CCN1CCN(C(=S)NCc2ccc(C)cc2)CC1 | i
Cc1ccccc1/C=C/C(=O)Nc1ncc(Cc2ccccc2Cl)s1 | i
CN(C)CCCC(=O)c1ccc2c(c1)OCO2 | i
C=CCN(CC=C)C(=S)Nc1ccc(OC)cc1OC | i
Cc1cccc(C)c1NC(=O)C(C(C)C)N1C(=O)c2ccccc2C1=O (stereo not given) | i
CCOc1ccc(-c2cc(C(=O)NCCCOC)c3ccccc3n2)cc1 | i
O=C1CC(c2ccc(C3CC(=O)n4c(nc5ccccc54)S3)cc2)Sc2nc3ccccc3n21 (stereo not given) | i
Clc1ccccc1OCCn1nnc2ccccc21 | 1%
O=C(Nc1ccccc1C(=O)O)c1cccc(S(=O)(=O)Nc2cccc(C(F)(F)F)c2)c1 | i
COC(=O)C(O)(CC(=O)Nc1ccc(C)c(F)c1)C(F)(F)F (stereo not given) | i
COc1c(Cl)cc(-c2nc3ccccc3c(=O)o2)cc1Cl | i
O=S1(=O)NC(=NCc2ccc(Cl)cc2)c2ccccc21 | i
O=C(NCc1ccccc1Cl)C1CCCCC1 | 1%
COc1ccc(OC)c(NC(=O)c2ccc(COc3ccc(Cl)cc3Cl)o2)c1 | i
NC1=NC(=Nc2cccc(F)c2)c2ccccc21 | i
Cc1c(Cl)cccc1NC(=O)CCC(=O)O | i
CCCCC(=O)Nc1ccc(NC(=S)NC(=O)c2ccc(Cl)cc2Cl)cc1OC | i
CCOC(=O)c1conc1-c1cc(OC)c(OC)c(OC)c1 | i
CCOc1ccc(Nc2nc(N)c(C(=O)C(C)(C)C)s2)cc1 | 6µg/mL*
O=C(CNS(=O)(=O)c1ccc(Cl)cc1)NC1CCCC1 | i
COc1ccc(CNCc2ccc(F)cc2)cc1 | i
COc1ccc(N2C(=O)CC(Sc3nc(C)c4cc(C)c(C)cc4n3)C2=O)cc1 (stereo not given) | i
CN(C)c1ccc(C2CC(=O)Nc3ccc4ccccc4c32)cc1 (stereo not given) | 5%
Cc1cc(I)ccc1NC(=O)CC1Sc2ccc(C(F)(F)F)cc2NC1=O (stereo not given) | 1%
CC1CCN(C(=O)c2ccccc2N)CC1 | i
O=C1CSC(SCC(=O)Nc2ccccc2Cl)=N1 | 5%
O=C(Nc1ccc2[nH]c(=O)[nH]c2c1)c1cc(I)ccc1Cl | 2%
CCCC(=O)Nc1ccccc1NC(=O)C(CC)c1ccccc1 (stereo not given) | i
COc1ccc(-c2cc(C(F)(F)F)n3nc(N)nc3n2)cc1 | i
Cc1nn(-c2ccccc2)c(OC(=O)c2ccc3c(c2)OCO3)c1S(=O)(=O)c1ccccc1 | i
COc1ccc(C(=O)CSc2nc(=O)cc(N)n2-c2ccc(C)cc2)cc1OC | i
CN1CCN(c2ccc(NC(=O)c3ccc(-c4ccc(Cl)cc4)o3)cc2)CC1 | 38µg/mL*
O=C(c1ccc(Br)s1)N1CCN(Cc2ccc3c(c2)OCO3)CC1 | u
CCc1cccc2c(C#N)cn(CC(=O)NCc3ccco3)c12 | i
Cn1nc([N+](=O)[O-])nc1Oc1ccc(Br)cc1 | 7.9µg/mL*
Cc1ccc(-c2cc(C(=O)O)c3cc(Br)ccc3n2)c(C)c1 | i
CCOC(=O)c1c(C)n(CC)c2ccc(OC(=O)CN3C(=O)c4ccccc4C3=O)cc12 | i
c1ccc(COc2ccc(OCCCN3CCCCC3)cc2)cc1 | i
O=C(OCc1ccccc1F)c1cccc(NC(=O)c2ccco2)c1 | i
CC(=O)Nc1ccc(C(=O)Nc2nnc(C(F)(F)F)s2)cc1 | i
COc1cc(OC)cc(-c2nc(=S)[nH][nH]2)c1 | i
O=C(Nc1ccc(Cl)cc1)c1cccs1 | 1%
COc1ccc(N(CC(=O)Nc2ccc(F)c(Cl)c2)S(=O)(=O)c2ccc(F)cc2)cc1 | i
CC(C(=O)Nc1ccccc1-c1ccccc1)c1ccc([N+](=O)[O-])cc1 (stereo not given) | i

# Remaining list, next part.
compound | Mtb growth
Cc1ccoc1C(=O)Nc1ccccc1Oc1ccccc1 | 2%
Cc1nc(SCC(=O)N(c2ccccc2)c2ccccc2)n[nH]1 | i
NC(=O)COc1ccc(NS(=O)(=O)Cc2ccccc2)cc1 | i
COc1cc(CNCc2cccs2)ccc1OCC(=O)N1CCCCC1 | 1%
CC(=O)Nc1ccc(NC(=O)c2sc3nc4c(cc3c2N)CCCC4)cc1 | 4%
COc1ccc(NC(=O)c2cc(OC)c(OC)cc2OC)cc1Cl | i
CN(C)CCn1c(C#N)cc2ccccc21 | i
O=C(NC(=S)Nc1ccc(S(=O)(=O)Nc2ccccc2)cc1)C1CC1 | i
Cc1cc(=O)oc2cc(NC(=S)NNC(=O)Cc3cccs3)ccc12 | i
O=C(CSc1ccccn1)N1c2ccccc2Sc2ccc(Cl)cc21 | i
COCCCNC(=O)c1ccccc1NS(C)(=O)=O | i
CC1CCc2c(sc3ncn(Cc4ccc(Br)cc4)c(=O)c23)C1 (stereo not given) | 3%
CSc1ccccc1NS(C)(=O)=O | i
CSc1ccc(C=NN2CCN(C3c4ccccc4-c4ccccc43)CC2)cc1 | i
COC(=O)c1ccc(C(=O)OC)c(NC(=O)C(C)Oc2ccc(Cl)cc2Cl)c1 (stereo not given) | i
c1ccc(Cn2c(NCc3ccccn3)nc3ccccc32)cc1 | 0%
Cc1ccc(COc2ccc(C(=S)N3CC(C)OC(C)C3)cc2)cc1 (stereo not given) | i
Cc1cccc(C)c1NC(=O)COc1ccc2cc(-c3ccccc3)c(=O)oc2c1 | 3%
CCCNC(=O)C1CCN(S(=O)(=O)c2ccc(OC)cc2)CC1 | i
CCCCC(=O)Nc1ccc(C(=O)Nc2ccc(S(N)(=O)=O)cc2)cc1 | i
Cc1ccc([N+](=O)[O-])cc1S(=O)(=O)Nc1ccc(Br)cc1 | 1%
CCC(=O)c1ccccc1OCCCSc1ncccn1 | 1%
Cc1cc(NC(=O)C(C)(C(F)(F)F)C(F)(F)F)no1 | i
O=C(NCCc1ccccc1)C1C(c2ccccc2)C1(Cl)Cl (stereo not given) | i
CC(C)(C)NS(=O)(=O)c1ccc(NC(=O)c2ccccc2[N+](=O)[O-])cc1 | i
Cc1ccc2cc(C=O)c(N3CCOCC3)nc2c1 | i
COCCCNCCOCCOc1c(C)cccc1C(C)(C)C | i
COc1ccc(CCNC(=O)c2ccc(NS(=O)(=O)c3cccc(Cl)c3)cc2)cc1OC | i
Cc1ccc(CNC(=O)c2ccccc2C)cc1 | 7%
O=C(NC1CC2CCC1C2)c1ccc(I)cc1 (stereo not given) | i
COc1ccc(Cl)cc1S(=O)(=O)N1CCCC1=O | i

# Some of these compounds in order of heavy-atom count, rising.
compound | Mtb growth
O=C(NC1CC2CCC1C2)c1ccc(I)cc1 (stereo not given) | i
COc1ccc(Cl)cc1S(=O)(=O)N1CCCC1=O | i
Cc1cc(NC(=O)C(C)(C(F)(F)F)C(F)(F)F)no1 | i
CCC(=O)c1ccccc1OCCCSc1ncccn1 | 1%
O=C(NCCc1ccccc1)C1C(c2ccccc2)C1(Cl)Cl (stereo not given) | i
COCCCNCCOCCOc1c(C)cccc1C(C)(C)C | i
CC(C)(C)NS(=O)(=O)c1ccc(NC(=O)c2ccccc2[N+](=O)[O-])cc1 | i
COc1ccc(CCNC(=O)c2ccc(NS(=O)(=O)c3cccc(Cl)c3)cc2)cc1OC | i

# From PubChem BioAssay
